# Screening results from PubChem.
# PINK1 modulator – changes PINK1 expression; PINK1 immunofluorescence, high-content cytometry, 24 h; Potency, µM (titrated, usually from 76.6 µM), for inactives: at the top dose activation (PINK1 increase), most hits filed as activators; hit rate 0.2% among 410,000; AID 624263; active = well fitted activation curve with a large enough effect; inconclusive = small, poorly fitted or top-dose-only effect; inactive = flat fitted curve, though single readings scatter; cell line not stated here;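 note: potency is the fitted concentration of half-maximal effect; % of control where 0% means no effect; nearly all actives have a fitted effect of over 65% in size; a mitochondrial uncoupler was the plate control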
#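 Fluorescence from anti-PINK1 antibody, together with nuclear and cell stains, was scanned on a laser-scanning cytometer. Before staining, stable-line cells were incubated 24 hours with compounds at 5 concentrations; primary antibody 12 h at 10 degrees C.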
# D2 potentiator – human D2 receptor positive allosteric modulation. hit rate 0.23% among 360,000. AID 624464. DiscoveRx D2 beta-arrestin cells, luminescence, 90 min; 100% = 57 uM dopamine signal. potentiation, % (test concentration not listed); active = potentiation of 50% or more; inconclusive = 30% to 50%; inactive = 30% or less;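 note: compound concentration not given in the record; tested on top of an EC20 dose of dopamine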
# Target sequence (P14416 whole entry, looked up): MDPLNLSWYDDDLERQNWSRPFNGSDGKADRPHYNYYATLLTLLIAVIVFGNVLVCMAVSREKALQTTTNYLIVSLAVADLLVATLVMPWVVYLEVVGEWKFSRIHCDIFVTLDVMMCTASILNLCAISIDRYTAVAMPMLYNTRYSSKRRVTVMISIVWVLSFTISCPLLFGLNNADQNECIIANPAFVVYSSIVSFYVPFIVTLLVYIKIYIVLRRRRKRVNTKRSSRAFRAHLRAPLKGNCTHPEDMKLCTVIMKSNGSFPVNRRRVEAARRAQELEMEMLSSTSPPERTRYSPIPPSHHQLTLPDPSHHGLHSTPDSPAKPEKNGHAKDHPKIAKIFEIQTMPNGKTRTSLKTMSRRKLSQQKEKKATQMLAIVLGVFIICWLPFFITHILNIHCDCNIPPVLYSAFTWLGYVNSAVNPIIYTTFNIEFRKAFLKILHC
#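 D2 cells co-treated with compound plus 50 nM dopamine (EC20) for 90 min at 37 deg C to detect potentiation. Beta-arrestin recruitment was read as enzyme-fragment luminescence after 1 h at ambient temperature. Full response was set by 57 uM dopamine.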
# TRPML1 ag – agonists of human TRPML1 channel | Q9GZU1 | TRPML1-expressing cells, Ca2+ dye fluorescence, FDSS; host cell line not named in the record; reference of the full effect not given here | activation, % (no concentration beside the values) | hit rate 0.12% among 410,000 | AID 624414; in the data active = activation above about 50%; inconclusive = about 30% to 50%; inactive = below about 30%; note: 0% is about no effect; the text of the record puts the active cut at 80%
# Target sequence (Q9GZU1 whole entry, looked up): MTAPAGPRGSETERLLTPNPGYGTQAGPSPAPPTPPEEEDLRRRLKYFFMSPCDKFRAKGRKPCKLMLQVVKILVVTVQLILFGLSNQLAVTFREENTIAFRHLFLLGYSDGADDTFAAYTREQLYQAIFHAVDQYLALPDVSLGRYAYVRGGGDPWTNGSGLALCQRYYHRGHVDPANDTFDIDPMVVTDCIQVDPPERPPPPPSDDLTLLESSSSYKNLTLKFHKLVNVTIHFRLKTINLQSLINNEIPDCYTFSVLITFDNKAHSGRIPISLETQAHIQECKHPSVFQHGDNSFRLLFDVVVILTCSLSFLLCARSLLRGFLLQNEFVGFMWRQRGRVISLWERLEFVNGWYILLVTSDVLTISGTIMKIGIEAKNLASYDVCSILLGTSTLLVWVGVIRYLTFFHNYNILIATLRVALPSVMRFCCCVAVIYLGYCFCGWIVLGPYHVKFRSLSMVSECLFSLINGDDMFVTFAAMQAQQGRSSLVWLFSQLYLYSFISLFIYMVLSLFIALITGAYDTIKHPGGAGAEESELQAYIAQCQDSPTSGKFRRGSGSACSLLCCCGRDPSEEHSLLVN
#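 TRPML1-DL cells, Tet-induced overnight (~16 h, 37 degrees C), loaded 45-90 min at room temperature with Ca8 no-wash calcium dye plus quencher. FDSS fluorescence: 10 s baseline, compound pin-transfer, 110 s agonist read, then EC80 54-4 (4uM final) and 110 s antagonist read.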
# Six1-Eya2 inh – blocks human Six1 binding to Eya2; Q15475+O00167; AlphaScreen GST-Six1/His-Eya2 binding, biochemical; hits give low values; control for the full effect not named in the record; activity change, % (no concentration beside the values); hit rate 0.56% among 360,000; in the data active = activity change below about -65%; inconclusive = about -30% to -65%; inactive = above about -30%; note: % is set by controls: 0 for no effect and ±100 for the full control effect; compound concentration not given in the record
#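 Six1/Eya2 binding was read as AlphaScreen signal after compounds were pinned into GST-Six1 plus His-tagged Eya2 (5X stock 250/500 nM) in pH 8.0 Tris/NaCl/TCEP buffer, beads added, then incubated 1 h, 37 C, dark.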
# D2 ag – agonists of human D2 dopamine receptor (beta-arrestin) | AID 624465 | activation, % (no concentration beside the values) | hit rate 0.084% among 360,000 | DiscoveRx PathHunter D2 beta-arrestin, luminescence, 90 min; 100% = 57 uM dopamine signal | P14416; in the data active = activation above about 40%; inconclusive = about 15% to 40%; inactive = below about 15%; note: compound concentration not given in the record; the text of the record calls up to 30% inactive
#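 DiscoveRx PathHunter D2 beta-arrestin cells (2,100/well) attached overnight, then compound-stimulated 90 min at 37 C in HBSS/10 mM HEPES/0.1% Tween-20 buffer; beta-galactosidase complementation read by luminescence after 1 h at ambient temperature. Dopamine 57 uM final (EC100) as control.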
# TRPML1 inh – inhibitors of human TRPML1 channel; Q9GZU1; hit rate 0.02% among 390,000; TRPML1-inducible cells, Ca2+ dye fluorescence, FDSS; hits give low values; inhibition of EC80 agonist-evoked calcium signal; AID 624415; activity change, negative = inhibition, % (concentration not given with the values); in the data active means activity change below about -50%; inconclusive means about -30% to -50%; inactive means above about -30%;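 note: stimulus is agonist 54-4 at its EC80 concentration; % is set by controls: 0 for no effect and ±100 for the full control effect; compound concentration not given in the record; the text of the record puts the active cut at -80%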
#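 TRPML1-DL cells, Tet-induced overnight (~16 h, 37 °C) at 1,500 cells/well, were loaded with Ca8 no-wash dye plus quencher for 45-90 min at room temperature. Compounds were pinned during FDSS kinetic reading; agonist 54-4 at EC80 (4 uM final) then added.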
# Starred values were filed as active, the others as inactive; u = inconclusive; x = not tested or not shown; & = joins results of further samples; [ ] = another dose, or the depositor's remark.
# Sequence of screens: TRPML1 ag	TRPML1 inh	Six1-Eya2 inh	PINK1 modulator	D2 potentiator	D2 ag
Cn1c(=O)[nH]c(=O)c2c1nc(CN1CCN(c3ccc(F)cc3)CC1)n2CCCc1ccccc1
    0.3	20	-4	1.2%[38.3 µM]	-16	0.1
O=C(c1cccc(N2CCCC2=O)c1)N1CCN(c2cccc(Cl)c2)CC1
    0.3	-6	-9	9.6%	-8	2.0
COc1ccc(NC(=O)Cn2cnc3ccccc3c2=O)cc1OC
    -0.1	5	-1	1.5%	-7	-3.1
C=CCNc1nc(NCCN2CCOCC2)nc(OC)n1
    -0.7	4	11	4.2%	2	-1.0
Cc1ccc(C2C3CSCC=C3C(C#N)=C(N)C2(C#N)C#N)cc1 (configuration not stated)
    1.8	7	-17	5.0%[38.3 µM]	-15	-2.0
O=S(=O)(NCC1CC1)c1cc(Cl)cc(Cl)c1
    2.3	3	4	2.8%	-2	4.5
COc1ccc(-n2nc(C(=O)O)nc2-c2ccccc2)cc1
    -0.7	5	-4	2.0%	-7	-4.6
COc1ccc(OC)c(Nc2nc(=O)c3cccnc3s2)c1
    -0.5	-10	-9	-0.5%	-20	6.0
CC(C)Oc1ccc(CNC(=O)CN2C(=O)CCc3cc(S(=O)(=O)N4CCCCC4)ccc32)cc1
    1.1	-6	x	0.0%	x	x
COc1ccccc1C(=O)Nc1cccc(C(=O)OCc2cc(=O)n3cc(C)sc3n2)c1
    2.3	14	x	-0.8%	x	x
COc1cccc(-c2nc(SC(C(C)=O)C(=O)N(C)C)c3c(=O)n(C)c(=O)n(C)c3n2)c1 (configuration not stated)
    -0.5	19	x	-0.4%	x	x
CC1CC(C)CN(C(=O)c2ccc(C#N)cc2)C1 (configuration not stated)
    -0.4	12	6	1.8%	4	1.5
Oc1ccc(-c2csc(NCc3ccco3)n2)cc1
    0.8	25	-9	-2.4%	5	1.0
COc1ccc(N2CC(C(=O)Nc3cccc(OC(C)C)c3)CC2=O)cc1 (configuration not stated)
    -0.4	2	-3	-0.2%	-10	-1.9
COc1ccc(C(=O)NCC(=O)N2CCN(c3ncccn3)CC2)cc1OC
    -0.6	-8	-2	0.1%	9	-0.7
CC(=O)NC(CC(=O)Nc1cccc(S(=O)(=O)N2CCCCC2)c1)c1ccccc1 (configuration not stated)
    0.4	65	-5	-1.2%	-36	-0.7
O=C(Cn1nc(-c2ccccc2)c2cnc3ccccc3c21)Nc1ccccc1
    -0.5	u	x	1.3%	x	x
Cc1nc2ncnn2c(C)c1CCC(=O)NC(C)c1ccc2c(c1)OCCO2 (configuration not stated)
    0.2	0	2	x	-15	-1.2
Cc1ccc(NC(=S)Nc2ccc(S(=O)(=O)Nc3ncccn3)cc2)c(C)c1
    0.2	-15	2	0.6%	-8	-0.9
Cc1ccc(S(=O)(=O)NC(=S)c2ccccc2)cc1
    -0.6	-18	-4	1.1%	-6	-0.1
CCCCc1nc(NCc2ccccc2)c(C#N)c2c1CCCC2
    0.2	-8	6	u	2	-5.1
O=C(O)C1CCCCC1C(=O)NCc1ccncc1 (configuration not stated)
    -0.5	-10	12	-1.9%	-6	-0.9
O=C(c1c(F)cccc1F)N1CCN=C1SCc1ccccc1
    1.4	14	-19	-0.5%	-10	1.8
Cc1ccc(C)c2c1cc(C)c1nnc(SCC(=O)c3cccs3)n12
    3.4	29	-4	-2.1%	-10	-1.3
CNC(=O)C1CC(=O)N(c2ccc(OCC(=O)Nc3ccccc3C)cc2)C1 (configuration not stated)
    -0.9	-6	3	1.3%	-5	0.9
CC(=O)NC(CCS(C)(=O)=O)C(=O)Nc1ccc2c(c1)OCO2 (configuration not stated)
    -0.6	1	1	0.5%	1	0.6
Cc1ccc(CNC(=O)CC2Oc3ccccc3NC2=O)cc1 (configuration not stated)
    -0.5	-17	x	0.7%	x	x
CC(NC(=O)COC(=O)CCN1C(=O)C2CC=CCC2C1=O)c1ccc(Br)cc1 (configuration not stated)
    3.9	-4	-1	1.4%	0	-1.4
COc1ccccc1CNC(=O)C1Cc2cc(S(=O)(=O)N3CCCCC3)ccc2N1C(C)=O (configuration not stated)
    -0.3	18	-2	-0.3%	-14	-0.8
CCN(CC)c1ccc(NC(=O)c2cccc(OC)c2)c(C)c1
    -0.8	10	-18	4.4%	-8	-2.8
CS(=O)(=O)N1CCN(c2ccc([N+](=O)[O-])c(NCc3cccnc3)c2)CC1
    0.4	-12	-1	0.3%	-2	-4.5
O=C(CCNC(=O)OCc1ccccc1)NC1CCCCC1
    0.1	-3	-9	1.5%	-7	-2.0
CCCN1CCN(CCCNC(=S)Nc2ccc(F)cc2)CC1
    3.3	-1	1	2.1%	-8	-0.4
O=C(O)C1(c2ccccc2)CCN(S(=O)(=O)c2ccc(Cl)s2)CC1
    0.1	4	7	-0.5%	-2	-1.1
CC(=O)NC1(C(F)(F)F)N=C2SCCN2C1=O (configuration not stated)
    -0.1	-8	4	-1.1%[38.3 µM]	12	1.8
COc1cc2nc(CN3CCN(S(=O)(=O)c4ccc(Br)cc4)CC3)[nH]c(=O)c2cc1OC
    0.3	11	-21	1.2%	-6	13
CS(=O)(=O)c1ccc(SCC(=O)NC2CCS(=O)(=O)C2)c([N+](=O)[O-])c1 (configuration not stated)
    -0.4	12	8	-0.7%	10	1.8
Cc1csc(SC(C)C(=O)NCC(=O)Nc2ccc(F)c(F)c2F)n1 (configuration not stated)
    1.5	5	-1	0.0%	-2	-4.3
CCOC(=O)N1CCN(C(=O)CCNS(=O)(=O)c2ccccc2)CC1
    0.9	0	1	-1.5%	-1	-1.8
CC(C)(C)[C@H]1CCC(=O)N([C@H](CSc2ccccc2)Cc2ccccc2)CC1
    -0.6&1.2	13	0	u	-12	0.3
CCOc1ccc(S(=O)(=O)N(CC(=O)Nc2cccnc2)c2ccccc2)cc1
    -0.1	2	x	8.5%	x	x
CCOc1ccc(N2C(=O)CC(NCCNc3ccc([N+](=O)[O-])cn3)C2=O)cc1 (configuration not stated)
    -0.7	3	7	1.9%	2	0.0
COc1ccc(S(=O)(=O)N[C@H](C(=O)N2CC[C@@]3(O)CCCC[C@H]3C2)c2ccccc2)cc1
    -0.9	-8	-2	-1.3%	0	-2.7
Cc1ccc(NC(=O)N2CCC(NC(=O)c3cccc(C)c3)CC2)cc1
    0.4	1	-9	-3.3%	-4	-4.1
Cc1cc(NCc2ccc3c(c2)OCO3)n2nc(C)nc2n1
    2.0	2	3	-3.0%	0	-3.0
COc1ccc(NC(=O)COc2ccc3oc(=O)cc(C)c3c2)cc1
    -0.2	41	-8	3.3%	-5	-2.1
CNc1oc(Cc2ccccc2)nc1S(=O)(=O)c1ccccc1
    -0.1	-9	11	-1.9%	-7	-0.3
Cn1cc(CCC(=O)NCCCc2ccccc2)c2ccccc21
    1.4	-15	-9	3.9%	-4	-4.8
C#CCSc1nc2sc3c(c2c(=O)n1Cc1ccccc1)CCCC3
    0.8	-1	x	2.7%	x	x
O=C(Nc1ccc(Cl)cc1)c1csc([C@@H]2O[C@H](CO)[C@H](O)[C@H](O)[C@H]2O)n1
    -0.9	x	0	3.8%	-19	-11

# Looked up above.
# Cn1cc(CCC(=O)NCCCc2ccccc2)c2ccccc21 @ D2 potentiator: -4
# O=C(Nc1ccc(Cl)cc1)c1csc([C@@H]2O[C@H](CO)[C@H](O)[C@H](O)[C@H]2O)n1 @ Six1-Eya2 inh: 0
# CCOc1ccc(N2C(=O)CC(NCCNc3ccc([N+](=O)[O-])cn3)C2=O)cc1 (configuration not stated) @ D2 ag: 0.0

# Next part:
# Sequence of screens: TRPML1 ag	TRPML1 inh	Six1-Eya2 inh	PINK1 modulator	D2 potentiator	D2 ag
COc1ccc(-c2csc(NC(=S)NC(=O)c3ccco3)n2)cc1
    0.8	-11	-2	1.5%	-7	-5.1
Cc1ccc(CNC(=O)C2CNc3cc(C)ccc3O2)cc1 (configuration not stated)
    -0.7	41	-11	-0.9%[38.3 µM]	-15	-3.3
CC(C)(C)CN1C(=O)C(=O)NC[C@@H]1CCCCN
    0.1	9	10	-0.5%	0	-1.1
Cc1cc(C)c(C(=O)CSc2nc3ccccc3c(=O)[nH]2)cc1C
    -1.1	-7	7	4.5%	-25	-3.2
CCN(CC)c1ccc(S(=O)(=O)N(CC)CC)cc1NC(=O)c1cccnc1
    0.0	50	15	0.2%	15	-3.2
CC(C)N(C)Cc1cn(C)nc1-c1ccc(Oc2ccccc2)cc1
    -0.1	0	1	-1.5%	-6	-2.5
COc1ccc(Oc2cc(C(F)(F)F)nc(N(C)C)n2)cc1
    -0.1	34	-3	13%	3	-3.5
Cc1ccc2[nH]c(CSc3nnc(NC(=O)COc4ccccc4)s3)cc(=O)c2c1
    2.5	1	x	5.6%	x	x
COc1ccc2c(c1)CCC/C2=N\OC(=O)c1ccccc1F
    2.7	2	7	-0.1%	0	-2.7
COc1ccc(CCNC(=O)c2nnn(-c3cccc(C)c3)c2N)cc1OC
    1.3	6	-5	-2.5%[38.3 µM]	-1	1.1
CN(C)c1ccc(N/C(=N\S(=O)(=O)c2cccs2)c2ccccc2)cc1
    -1.6	-11	u	-1.1%	-6	-0.5
COc1ccc(S(=O)(=O)Nc2ccccc2C(F)(F)F)cc1
    1.0	-1	4	13%[38.3 µM]	11	0.7
Cc1ccccc1OCCCC(=O)Nc1ccc(N2CCOCC2)cc1
    0.3	-11	-12	-2.9%[38.3 µM]	15	4.1
CCOc1ccccc1OCCC(=O)Nc1ccc2c(c1)OCO2
    1.5	-19	-2	0.7%	-17	-4.6
Cc1cccc(NC(=O)C(C)C(=O)c2ccccc2)c1 (configuration not stated)
    x	x	-1	-1.6%	8	4.3
O=C(O)CCCn1cc(NC(=O)COc2ccccc2)cn1
    0.8	11	-25	1.5%	-10	-6.9
CCc1c(C)sc(NC(=O)/C=C/c2ccc3c(c2)OCO3)c1C(=O)OC
    2.3	-12	18	4.6%	-17	-2.3
CC1(c2ccc(OC(F)F)cc2)NC(=O)N(CC(=O)N2CCN(C(=O)c3ccco3)CC2)C1=O (configuration not stated)
    1.6	6	4	-1.0%	-1	-3.6
Cc1oc(C(N)=O)nc1-c1ccccc1
    -0.8	17	u	-0.4%	-5	-4.6
CCOCCCNC(=O)Cn1cc2c(n1)-c1c(oc(C(=O)N3CCCC3)c1C)CC2
    -0.7&-0.1	16&19	-1	1.4%&0.6%	13	2.8
COc1ccc(N(CC(=O)Nc2cccc(N(C)S(C)(=O)=O)c2)S(=O)(=O)c2ccc(C)cc2)cc1
    4.1	-8	-8	-0.2%	-13	0.8
Cc1cc(NC(=O)CSc2[nH]c(=O)cc(C(F)(F)F)c2C#N)no1
    2.1	-14	-11	1.4%	5	6.7
